High-throughput results: PubChem BioAssay, National Center for Advancing Translational Sciences (NCATS)
Sfp inh: qHTS Assay for Inhibitors of Bacillus subtilis Sfp phosphopantetheinyl transferase (PPTase); Biochemical Sfp PPTase activity, qHTS; Potency, µM, for inactives: max response, negative = inhibition, most hits filed as inhibitors; 310,000 tested, 3.5% active; active = well fitted inhibition curve with a large enough effect; inconclusive = small, poorly fitted or top-dose-only effect, or another doubt; inactive = no such curve, though single readings can be large or run the other way;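 also: the enzyme is Sfp with the accession as filed and its product quenches rhodamine fluorescence; potency is read from the fitted curve at half-maximal effect; 0% = enzyme reaction without inhibitor and -100% = no enzyme wells; top concentration of the series not given in the record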
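Buffer: 50 mM Hepes-Na pH 7.6, 10 mM MgCl2, 0.01% Nonidet P-40, 0.01% BSA. Enzyme 15 nM, pre-exposed to compound 15 min; substrates then added and fluorescence change tracked over 30 min.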
Menin MLL FP FL: qHTS Assay for Inhibitors Targeting the Menin-MLL Interaction in MLL Related Leukemias: Competition With Fluorescein Labeled MLL-derived Peptide; AID 1766, 2009; Fluorescence polarization, fluorescein-MLL peptide displacement from menin; FP activity change, % at 61.4 µM; 290,000 tested, under 10 active; inconclusive = falling polarisation curve, or a change in total fluorescence; inactive = total fluorescence flat and polarisation flat or rising; no compound was filed as active; the % refers to the polarisation; negative = inhibition;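 also: % of control where 0% means no effect; inhibitors lower the polarisation; unlabelled MLL peptide was the positive control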
Starred values were filed as active, the others as inactive; ? = inconclusive; & = joins results of further samples; ! = not active in a repeat; [ ] = remark or other dose. Not all compounds are listed, so the mix of outcomes need not match the whole.

Sfp inh,Menin MLL FP FL,molecule
89µM*!,?,C[C@H](NC[C@H](O)CP(=O)(O)Cc1ccccc1)c1ccc(Cl)c(Cl)c1
-14%,1.3,COc1ccc2[nH]cc(CCNc3ncncc3-c3ccc(N(C)C)cc3)c2c1
-11%,-4.2[11.7 µM],CCCCCCC1=Cc2cc(OC)c(OC)cc2C(C2(C(=O)OCC)CCCC2=O)O1 (stereo not drawn)
-7%,?,O=C1C[C@H](c2ccccc2)Oc2cc(O)cc(O)c21
7%,1.3,COC(=O)[C@@]1(Cc2ccc(OC)cc2)[C@H]2c3cc(C(=O)N4CCCC4)n(C[C@H](O)CO)c3C[C@H]2CN1C(=O)c1ccccc1
-5%,-0.4,COc1ccc2[nH]cc(CCNc3nc(-c4ccoc4)nc4ccccc34)c2c1
8%,-1.0[11.7 µM],C[C@H]1Cc2c(-c3ccccc3)nc3c(c2CO1)CN(C(=O)c1cccnc1)CC3
2%,-0.2,CN1CCN(c2ncc3nc(-c4cccc(C#N)c4)c(=O)n(C)c3n2)CC1
0%,-2.0,O=C(Nc1ccccc1)N1CCC2(CCNCC2)CC1
19%,0.2,CCC1=C2CC[C@H]3C(=O)N(C)C(=O)[C@H]3[C@H]2[C@@]2(C)C(=NCc3ccccc3)OC(=O)N2C1=O
1%,-1.2,CC1CCC2=C1C[C@H](C(C)(C)O)CC[C@@H]2C (stereo partly drawn)
-6%,0.4,CN(C)C(=O)c1ccc(-c2ccc3ncnc(NCc4cccs4)c3c2)cc1
19%,-2.3,C#CCCCC(=O)Nc1ccccc1
?,-5.3,CN(Cc1ccco1)c1ncncc1-c1ccc2c(c1)OCO2
12%,1.8,CCOC(=O)C1CCN(C(=O)C2CCN(S(=O)(=O)c3cccc4cccnc34)CC2)CC1
1%,-5.8,COC(=O)[C@@H](NC(=O)O[C@@H]1C(=O)c2cc(OC)ccc2O[C@H]1c1ccc(OC)c(Br)c1)C(C)C
-16%,8.1[11.7 µM],CCCCc1nc2c(c3c1C[C@H](C)OC3)CN(S(=O)(=O)c1ccc(Cl)c3nonc13)CC2
-7%,3.1,CCCCN(CC)c1nc(C)nc2c1c(C)c(C)n2-c1c(C)cc(C)cc1C
5%,-3.9,O=S(=O)(Cc1ccccc1)c1nnnn1-c1ccccc1
-10%,-1.5,COc1ccc(-c2nnc3n2N=C(c2c(OC)cccc2OC)CS3)cc1
9%,2.7,COC(=O)N1CCC2(CC1)CCN(c1ccncc1)CC2
12%,-1.9,COC(=O)N1CCC[C@@]2(CCN(Cc3nccs3)C2)C1
14%,6.8,COc1cccc(-c2cncnc2Nc2ccccc2)c1
8%,2.9,CCCCCCCC/C=C/CCCCCCCCOP(=O)([O-])OCC[N+](C)(C)C
13%,1.9,CCCCCCCCCCCCCCCCCC(=O)OC[C@@H](O)[C@H]1OC[C@H](O)[C@H]1O
9%,-1.9[24.8 µM],Cc1ncc([N+](=O)[O-])n1C[C@H](O)CCl
33%[activator],0.0,O=c1c(-c2ccc(F)cc2)nc2cnc(N3CCOCC3)nc2n1-c1ccccc1
14%,3.8,CN(C)c1ccc(-c2ccc3ncnc(NC4CC4)c3c2)cc1
-4%,0.0,CC1(C)S[C@@H]2[C@H](NC(=O)COc3ccccc3)C(=O)N2[C@H]1C(=O)O
5%,-0.9,CCC1Cc2cc(O)ccc2C2=C1c1ccc(O)cc1CC2CC (stereo not drawn)

A draw from above in order of molar mass, low to high.
Sfp inh,Menin MLL FP FL,molecule
33%[activator],0.0,O=c1c(-c2ccc(F)cc2)nc2cnc(N3CCOCC3)nc2n1-c1ccccc1
12%,1.8,CCOC(=O)C1CCN(C(=O)C2CCN(S(=O)(=O)c3cccc4cccnc34)CC2)CC1
7%,1.3,COC(=O)[C@@]1(Cc2ccc(OC)cc2)[C@H]2c3cc(C(=O)N4CCCC4)n(C[C@H](O)CO)c3C[C@H]2CN1C(=O)c1ccccc1

Continued:
Sfp inh,Menin MLL FP FL,molecule
10%,-0.3,CC[C@H](C)[C@H](NC(=O)[C@H](CO)NC(=O)[C@H](CC(N)=O)NC(=O)[C@H](CC(C)C)NC(=O)[C@H](Cc1ccc(O)cc1)NC(=O)[C@H](CCCCN)NC(=O)[C@H](CCCCN)NC(=O)[C@@H](NC(=O)[C@H](C)NC(=O)[C@H](CCSC)NC(=O)[C@H](CCC(N)=O)NC(=O)[C@H](CCCCN)NC(=O)[C@H](CCCNC(=N)N)NC(=O)[C@H](CC(C)C)NC(=O)[C@H](CCCNC(=N)N)NC(=O)[C@@H](NC(=O)[C@H](Cc1ccc(O)cc1)NC(=O)[C@H](CC(N)=O)NC(=O)[C@H](CC(=O)O)NC(=O)[C@@H](NC(=O)[C@H](Cc1ccccc1)NC(=O)[C@@H](NC(=O)[C@H](C)NC(=O)[C@H](CC(=O)O)NC(=O)[C@H](CO)NC(=O)[C@@H](N)Cc1cnc[nH]1)C(C)C)[C@@H](C)O)[C@@H](C)O)C(C)C)C(=O)N[C@@H](CC(C)C)C(=O)N[C@@H](CC(N)=O)C(N)=O
11%,-3.6,Cc1ccc(S(=O)(=O)O)cc1C
7%,-5.1,c1cncc(-c2ccc3ncnc(NCCN4CCOCC4)c3c2)c1
3%,-0.6,CC(=O)OCC(=O)[C@@]1(O)CC[C@H]2[C@@H]3CCC4=CC(=O)CC[C@]4(C)[C@@H]3C(=O)C[C@@]21C
-1%,0.3,O=C(c1cc(C(F)(F)F)cc(C(F)(F)F)c1)N1CCC[C@@]2(CCN(c3ccncc3)C2)C1
8%&0%,3.4,NC(=O)CCCCn1ccc(NC(N)=NCC(F)(F)F)n1
11µM*,2.7,C=C[C@@H](C1=CC(=O)C(OC)=C(OC)C1=O)c1ccccc1
-12%,2.4[11.7 µM],CO[C@H]1COC(=O)[C@H](C)COC(=O)[C@@H](Cc2ccccc2)NC(=O)C/C=C\[C@H]1C
3%,-1.5[11.7 µM],COC(=O)[C@@H]1CC[C@H](C)[C@@H](c2ccc(C)cc2)N1C(=O)c1ccc(/C=N\O[C@@H](C)CN2CCCCc3nc(C)c(C)cc32)cc1
9%,3.6,FC(F)(F)c1cc(NC(=S)NC23CC4CC(CC(C4)C2)C3)cc(C(F)(F)F)c1
1%,4.8,COc1ccc(-c2nc3cnc(N4CCNCC4)nc3n(-c3ccccc3)c2=O)cc1
-8%,4.2,Cc1nc2cnc(Oc3cccc(Cl)c3)nc2n(CCc2ccccc2)c1=O
9%,-1.4,COc1cc(OC)cc(-c2nnc3n2N=C(c2ccc(OC)c(OC)c2)CS3)c1
4%,0.1,CC(C)C[C@@H](CC(=O)N[C@@H](CCCN)CC(=O)N[C@@H]1CCNC[C@H]1C(=O)N[C@H](CC(=O)N[C@@H](CCC(=O)O)CC(=O)O)Cc1c[nH]c2ccccc12)NC(=O)[C@@H]1CCCC[C@H]1N
71µM*,94[activator],COc1cc2cc3c4c(cc(OC)c(OC)c4c2cc1OC)CCN3C
7%,21[11.7 µM],CC(=O)OC[C@H]1O[C@@H](ON=C(C)C)[C@H](OC(C)=O)[C@@H](OC(C)=O)[C@H]1OC(C)=O
3%,-3.2,O=c1c(-c2ccccc2)nc2cnc(N3CCOCC3)nc2n1CCc1ccccc1
-4%,-19,CC[C@H](C)[C@H](NC(=O)[C@H](CCCNC(=N)N)NC(=O)[C@H](CCCNC(=N)N)NC(=O)[C@H](CC(C)C)NC(=O)[C@H](Cc1ccccc1)NC(=O)CNC(=O)CNC(=O)[C@@H](N)Cc1ccc(O)cc1)C(=O)N[C@@H](CCCNC(=N)N)C(=O)N1CCC[C@H]1C(=O)N[C@@H](CCCCN)C(=O)N[C@@H](CC(C)C)C(=O)N[C@@H](CCCCN)C(=O)N[C@@H](Cc1c[nH]c2ccccc12)C(=O)N[C@@H](CC(=O)O)C(=O)N[C@@H](CC(N)=O)C(=O)N[C@@H](CCC(N)=O)C(=O)O
12%,3.8,COC(=O)[C@@]1(Cc2ccc(F)cc2)[C@H]2c3cc(C(=O)N(C)C)n(Cc4ccc(C(F)(F)F)nc4)c3C[C@H]2CN1C(=O)c1ccccc1
11%,4.1,COCCn1c(=O)c(C)nc2cnc(Nc3cccc(OC)c3)nc21
25%&-13%,2.9&4.8,N[C@@H](Cc1ccccc1)C(=O)O
-4%,-4.9,Cn1cccc1C(=O)N1CCC2(CC1)CN(C(=O)Nc1ccccc1)C2
24%,0.9,CC(=O)C1CCC2C3CC=C4CC(O)CC[C@@]4(C)C3CC[C@]12C (stereo partly drawn)
7%,-7.8[11.7 µM],COC(=O)C1=C(C(=O)OC)[C@@H]2N(C)c3ccc(OC)cc3[C@@]23C[C@@H](C(=O)OC)N(S(=O)(=O)c2ccc(C#N)cc2)C3=N1
-10%,-7.4,Cc1noc(C)c1-c1ccc2ncnc(NCc3cccn3C)c2c1
-22%,2.9,O=C(c1ccncc1)N1CCC2(CC1)CN(c1cccc(-c3ccccc3)c1)C2
27%,3.0,CCCC[C@@H]1C[C@H]1C(NC(=O)c1cccs1)c1ccc(C(F)(F)F)cc1 (stereo partly drawn)
-7%,-1.6,O=C(O)C(O)[C@@](O)(Cc1ccc(O)cc1)C(=O)O (stereo partly drawn)
11%,0.6,C[C@@H](O)C(N)C(=O)O (stereo partly drawn)
25%,-6.5,CC(C)CN1CCC2(CC1)CCN(C(=O)c1ccco1)CC2

Copied from the listing for reference:
Sfp inh,Menin MLL FP FL,molecule
7%,1.3,COC(=O)[C@@]1(Cc2ccc(OC)cc2)[C@H]2c3cc(C(=O)N4CCCC4)n(C[C@H](O)CO)c3C[C@H]2CN1C(=O)c1ccccc1
-5%,-0.4,COc1ccc2[nH]cc(CCNc3nc(-c4ccoc4)nc4ccccc34)c2c1
8%,-1.0[11.7 µM],C[C@H]1Cc2c(-c3ccccc3)nc3c(c2CO1)CN(C(=O)c1cccnc1)CC3
2%,-0.2,CN1CCN(c2ncc3nc(-c4cccc(C#N)c4)c(=O)n(C)c3n2)CC1
0%,-2.0,O=C(Nc1ccccc1)N1CCC2(CCNCC2)CC1
19%,0.2,CCC1=C2CC[C@H]3C(=O)N(C)C(=O)[C@H]3[C@H]2[C@@]2(C)C(=NCc3ccccc3)OC(=O)N2C1=O

The listing continues:
Sfp inh,Menin MLL FP FL,molecule
19%,0.8[24.8 µM],C[C@@H]1C[C@H]2[C@@H]3C[C@H](F)C4=CC(=O)C=C[C@@]4(C)[C@]3(F)[C@H](O)C[C@]2(C)[C@@]1(O)C(=O)CO
-11%&-4%,?,COc1ccccc1C1=Nn2c(nnc2-c2ccccc2C)SC1
1%,1.0,CC[C@H](C)[C@H](NC(=O)[C@H](Cc1ccc(O)cc1)NC(=O)[C@@H](NC(=O)[C@@H](N)CCCN=C(N)N)C(C)C)C(=O)N[C@@H](Cc1cnc[nH]1)C(=O)N1CCC[C@H]1C(=O)N[C@@H](Cc1ccccc1)C(=O)O
-2%,6.1,COc1ccc(C(=O)N2CCC3(CCCN(C(=O)Nc4cccc(C#N)c4)C3)CC2)cc1
31%,4.1,CC(C)C[C@@H](NC(=O)[C@@H](Cc1ccccc1)NC(=O)c1cnccn1)B(O)O
21%,0.0[24.8 µM],C[C@@H]1O[C@H](O[C@@H]2[C@@H](Oc3cc(O)c4c(c3)O[C@H](c3ccc(O)cc3)CC4=O)O[C@@H](CO)[C@@H](O)[C@H]2O)[C@@H](O)[C@H](O)[C@@H]1O
44%,7.4,CCCCCS(=O)(=O)CCCCCCCCCCn1c(-c2ccc(O)cc2)c(C)c2cc(O)ccc21
21%&34%,1.8,CCCCCCCC/C=C\CCCCCCCC(=O)OC[C@H](CO)OC(C)=O
-2%,-2.6,Cc1noc(C)c1-c1cc(N2CCNCC2)ncn1
2%,1.4[24.8 µM],CCN(CC)CCOC(=O)[C@@H](c1ccccc1)C1CCCCC1
1%,0.9,O=C(Oc1ccccc1)N1CCC2(CCCN(c3ccccn3)C2)CC1
19%,?,O=c1c(CCc2ccccc2)nc2cnc(N3CCOCC3)nc2n1-c1ccccc1
9%,-1.4,N#Cc1ccccc1-c1ccc2ncnc(N3CCNCC3)c2c1
7%,1.9,COc1ccc(/C=C2\NC(=O)[C@@H]3Cc4ccccc4CN3C2=O)cc1
20%,-5.4[24.8 µM],CC(C)(C)CC(C)(C)c1ccc(OCOCCOCCO)c(Cc2cc(C(C)(C)CC(C)(C)C)cc(Cc3cc(C(C)(C)CC(C)(C)C)ccc3OCOCCOCCO)c2OCOCCOCCO)c1
8%,4.0[11.7 µM],C[C@H]1Cc2c(COc3ccccc3)nc3c(c2CO1)CN(S(=O)(=O)c1ccc(C#N)cc1)CC3
1%,-0.8,COC(=O)c1c(C)cc(OC)cc1O
-5%,2.5,O=C(O)CC/C=C\CC[C@@H]1[C@@H](N2CCCCC2)[C@@H](O)C[C@@H]1OCc1ccc(-c2ccccc2)cc1
1.6µM*,-3.7,CCOC(=O)C(CS)NCCN[C@@H](CS)C(=O)OCC (stereo partly drawn)
-1%,-1.4,Cn1c(=O)c(-c2cc(F)cc(F)c2)nc2cnc(Oc3cccc(Cl)c3)nc21
-9%,4.4,c1ccc(Nc2nc(-c3ccc4c(c3)OCO4)nc3ccccc23)cc1
1%,-0.4[11.7 µM],CC/C=C\CC[C@H](O)C1=CCCCC1=O
-1%,-12,CCNCCCNCCCCNCCCNCC
9%,0.6[11.7 µM],C=CCN1c2ccccc2[C@]23C[C@@H](C(=O)OC)N(S(=O)(=O)c4ccc5c(c4)OCCN5C)C2=NC(C(=O)OC)=C(C(=O)OC)[C@H]13
